SARS PLpro yeast: blocks SARS-CoV papain-like protease in a yeast assay; S. cerevisiae expressing SARS-CoV PLpro, growth rescue; control for the full effect not named in the record; Potency, µM (series often up to 32.9 µM), inactives show at the top dose activity, positive = growth rescue; 0.19% of 330,000 active; also: 0% is about no effect; nearly all actives have a fitted effect of over 55% in size; growth read by luminescence after 48 h
Cruzain Triton: inhibitors of Trypanosoma cruzi cruzain with detergent; P25779; purified cruzain, Z-FR-AMC fluorescence, 0.01% Triton; Potency, µM, for the others: max response, negative = inhibition, most hits filed as inhibitors; 0.43% of 200,000 active; AID 1478; active = well fitted curve in the direction sought with a large enough effect; inconclusive = small, poorly fitted or top-dose-only effect, or another doubt; inactive = no such curve, though single readings can be large; an effect the other way counts as inactive or inconclusive;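 also: plate controls were neutral wells for no effect and buffer without enzyme for full effect; nearly all actives have a fitted effect of over 40% in size; top concentration of the series not given in the record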
Target sequence (P25779 123-467 limits assumed): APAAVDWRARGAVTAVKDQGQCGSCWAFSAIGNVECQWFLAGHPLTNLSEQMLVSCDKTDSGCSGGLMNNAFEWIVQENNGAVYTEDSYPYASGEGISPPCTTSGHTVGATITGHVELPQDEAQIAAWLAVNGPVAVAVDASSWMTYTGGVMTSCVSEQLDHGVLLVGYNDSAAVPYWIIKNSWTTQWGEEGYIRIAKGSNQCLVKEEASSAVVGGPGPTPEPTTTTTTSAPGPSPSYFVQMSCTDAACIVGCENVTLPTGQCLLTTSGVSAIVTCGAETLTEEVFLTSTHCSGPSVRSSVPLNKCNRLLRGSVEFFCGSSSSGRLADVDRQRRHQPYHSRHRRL
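Steps: dispense cruzain (1.5 nM final) in acetate buffer pH 5.5 with DTT and 0.01% Triton X-100; pin-transfer compounds; incubate 15 min RT; add Z-FR-AMC (2 uM final); read fluorescence every 30 s, using the 60 s intensity change.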
Cruzain inh noDet: blocks cruzain activity in detergent-free assay; P25779; purified cruzain, Z-FR-AMC fluorescence, no detergent; Potency, µM, without a hit: max response, negative = inhibition, hits mostly inhibitors; 2.3% of 200,000 active; AID 1476; active = well fitted curve in the direction sought with a large enough effect; inconclusive = small, poorly fitted or top-dose-only effect, or another doubt; inactive = no such curve, though single readings can be large; an effect the other way counts as inactive or inconclusive;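 also: plate controls were enzyme without inhibitor for no effect and buffer without enzyme for full effect; nearly all actives have a fitted effect of over 40% in size; top concentration of the series not given in the record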
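Detergent-free condition (0.00005% Triton X-100) in acetate buffer pH 5.5 with DTT. 1.5 nM enzyme and compound were pre-mixed 15 min, then 2 uM Z-FR-AMC substrate added; reaction progress from fluorescence change between first and third reads (60 s).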
Lassa entry inh: Lassa virus entry inhibition; Lassa virus pseudotype entry inhibition, cell reporter; control for the full effect not named in the record; Potency, µM (top dose mostly 37.9 µM), inactives show at the highest dose activity change, negative = inhibition, actives largely listed as inhibitors; 1.2% of 300,000 active; AID 540256; active means well fitted inhibition curve with a large enough effect; inconclusive means small, poorly fitted or top-dose-only effect, or effect the other way; inactive means flat fitted curve, though single readings scatter; tested in HEK293 cells; also: % is scaled to controls: 0 for no effect and ±100 for the full control effect; nearly all actives have a fitted effect of over 50% in size; luciferase read-out
RE007 growth inh: less growth of the S. pombe RE007 Vpr strain. Potency, µM (highest dose often 92.2 µM), without a hit: at the highest dose activity change, negative = less growth. 0.21% of 360,000 active. S. pombe RE007 Vpr strain, BacTiter-Glo ATP luminescence, 24 h; control for the full effect not named in the record; active = well fitted falling curve with a large enough effect; inconclusive = small, poorly fitted or top-dose-only effect; inactive = no such curve, though single readings can be large or run the other way;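 also: % is scaled to controls: 0 for no effect and ±100 for the full control effect; nearly all actives have a fitted effect of over 50% in size; the assay follows cell death caused by Vpr and the record does not say whether a fall means rescue or toxicity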
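Fission yeast strain RE007, carrying one chromosomally integrated HIV-1 vpr copy, was seeded at OD 0.01 in PMG+AL medium with 23 nL pinned compound. After 24 h at 30 °C and 99% humidity, viability was read by BacTiter-Glo luminescence.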
NS1 inh: influenza NS1 inhibition; S. cerevisiae slowed by influenza A NS1, growth recovery by OD600; Potency, µM (doses to about 46.1 µM), for inactives: top-dose activity, positive = more growth; 0.4% of 270,000 active; AID 2326; also: actives are rising curves; nearly all actives have a fitted effect of over 50% in size
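Read-out: OD600 growth recovery of NS1-expressing budding yeast. Cells grown overnight at 30C in -URA glucose medium, washed, resuspended and diluted 1:100 in 2% galactose assay medium, pH 6.0. Same strain lacking NS1 served as positive control.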
MARV entry inh: Marburg virus entry inhibition; 1.8% of 300,000 active; AID 540276; Potency, µM (doses to about 37.8 µM), without a hit: top-dose activity change, negative = inhibition, actives largely listed as inhibitors; Marburg virus pseudotyped entry inhibition, cell reporter; control for the full effect not named in the record; about a third of the inactives were read at about 46 µM; active = well fitted inhibition curve with a large enough effect; inconclusive = small, poorly fitted or top-dose-only effect, or effect the other way; inactive = flat fitted curve, though single readings scatter; tested in HEK293 cells; about a fifth of its hits are not listed in these tables; also: % is scaled to controls: 0 for no effect and ±100 for the full control effect; luciferase read-out
StopGo reporter: lowers the luciferase signal of an FMDV 2A StopGo reporter. human cells with a luciferase reporter of 2A StopGo recoding; control for the full effect not named in the record. Potency, µM (titrated, usually from 57.9 µM), for inactives: top-dose signal change, negative = less light. 1.2% of 410,000 active; active = well fitted falling curve with a large enough effect; inconclusive = small, poorly fitted or top-dose-only effect; inactive = no such curve, though single readings can be large or run the other way; tested in HEK293T cells; also: % is scaled to controls: 0 for no effect and ±100 for the full control effect; nearly all actives have a fitted effect of over 45% in size; luciferase light after 4 h
* marks the source's active call; other numbers are inactive results; u = inconclusive; x = no result given; & = joins results of further samples; ! = not confirmed by another sample; [ ] = remark or other dose. Unless noted, calls follow the shape of the dose curve; as a rule, active means well fitted rising curve with a large enough effect; inconclusive means small, poorly fitted or top-dose-only effect; inactive means no such curve, though single readings can be large or run the other way. Potency is read from the fitted curve at half-maximal effect.

SMILES	SARS PLpro yeast	Cruzain Triton	Cruzain inh noDet	Lassa entry inh	RE007 growth inh	NS1 inh	MARV entry inh	StopGo reporter
O=C(CC1C(=O)NCCN1Cc1cccc(F)c1)NCCCCCN1CCOCC1 (stereo not given)	2%	x	x	-24%	9%	5%	u	-11%
CCOc1cccc(CNCc2cccnc2)c1OCc1ccccc1	0%	x	x	1%	-1%	3%	-5%[46.1 µM]	-10%
CC(=O)Oc1ccccc1C(=O)NC(C)CCc1ccccc1 (stereo not given)	-3%	x	x	-9%	42%	-45%	-30%	25µM*
Cc1onc(-c2c(F)cccc2Cl)c1C(=O)NCc1cccs1	-1%	-3.9%	-9%	-2%	-1%	4%	-4%	2%
O=C(C1CCCO1)N1CCN(C(=S)Nc2ccccc2F)CC1 (stereo not given)	12%	-1.0%	0%	-2%	-3%	15%	u	u
CCN(CC(=O)NCc1cccs1)c1ccc(S(=O)(=O)N2CCN(C)CC2)cn1	-2%	x	x	x	5%	3%	x	-13%
COc1ccc(C(=O)NC(C)c2nnc(SCC(=O)NC3CCCC3)n2C)cc1 (stereo not given)	-3%	x	x	u	10%	-1%	10%[46.1 µM]	-3%
COc1ccc(CCNC(c2ccc(F)cc2)c2nnc(-c3ccccc3Cl)o2)cc1OC (stereo not given)	x	-6.2%	u	-28%[46.1 µM]	x	x	13µM*	u
COc1ccc(N=C2SCC(=O)N2CCc2ccc(OC)c(OC)c2)cc1	-1%	x	x	x	6%	-2%	x	u
Cn1nccc1C(=O)Nc1sc2c(c1C(N)=O)CCCC2	-1%	x	x	14%	-14%	-9%	2%[46.1 µM]	-14%
COc1cccc(CCNC(=O)C2CCC(=O)N(C3CC3)C2)c1OC (stereo not given)	2%	x	x	x	-8%	-13%	x	22%
CC(C)Nc1nc(NC(C)C)nc(NS(=O)(=O)c2ccc(N)cc2)n1	5%	-2.3%	-8%	-2%	-7%[3.69 µM]	4%	3%	15%
CCCCS(=O)(=O)N1CCCC(C(=O)N2CCOCC2)C1 (stereo not given)	-15%	x	x	x	3%	27%	x	-4%
COc1cccc(OCc2cc(=O)n3cc(C)sc3n2)c1	x	-3.7%	-11%	-14%[46.1 µM]	x	x	9%[46.1 µM]	39%[activator]
Cc1cc(Br)cc(Cl)c1OCC(=O)NC(=O)NCc1ccccc1	12%	0.5%	u	3%	4%	1%	-39%	-13%
COc1ccccc1N1CCN(/N=C/c2ccc(OC)c(OC)c2OC)CC1	17%	x	x	17%[46.1 µM]	-11%	3%	2%[46.1 µM]	-2%
O=C1CC(c2ccccc2)CC(O)=C1C=NCc1ccccc1Cl (stereo not given)	0%	-6.7%	-8%	-22%	-22%	-12%	u	x
CCc1ccccc1NC(=O)C1CCCN(c2cnccn2)C1 (stereo not given)	x	-0.5%	7%	7%[46.1 µM]	x	x	u	0%
CN(C)c1ccnc(SCc2ccccc2Cl)c1C#N	-6%	-6.1%	-11%	25%[14.3 µM]	6%	-48%	21%	0%
O=C(O)c1ccccc1N/C=C\[N+](=O)[O-]	-2%	x	x	-14%[46.1 µM]	-25%	x	-17%[46.1 µM]	7%
O=C(NC(=S)NCc1ccc2c(c1)OCO2)c1ccccc1	29%	-3.7%	9%	-6%	-17%	0%	u	17%
CCOC(=O)Nc1ccc2c(COC(=O)CNS(=O)(=O)c3cccc(Br)c3)cc(=O)oc2c1	8%	-6.4%	u	u	9%	12%	-7%	20%
COc1ccc(-c2noc(CCC(=O)N3CCN(c4ccc(Br)cc4)CC3)n2)cc1	13%	x	x	x	9%	x	1%	-19%
CCCN(C(=O)COc1ccc(Cl)cc1Cl)c1c(N)n(Cc2ccccc2)c(=O)[nH]c1=O	0%	x	x	x	-4%	9%	x	4%
NC(=O)CS(=O)(=O)c1nc2ccccc2n1Cc1ccccn1	-4%	x	x	x	-11%	x	-8%&-8%[46.1 µM]	-1%
SMILES	SARS PLpro yeast	Cruzain Triton	Cruzain inh noDet	Lassa entry inh	RE007 growth inh	NS1 inh	MARV entry inh	StopGo reporter
Cc1oc(-c2ccccc2F)nc1CS(=O)CC(=O)NCc1cccs1 (stereo not given)	5%	-1.4%	3%	x	-8%	11µM*	x	22%
NS(=O)(=O)c1ccc(CCNC(=O)c2cc(=O)[nH]c3ccccc23)cc1	2%	x	x	-4%	-9%	30%	1%[46.1 µM]	6%
CCN(CC)C(=O)c1c(-c2ccccc2)c(-c2ccccc2)nn(C)c1=O	x	-0.4%	-4%	-13%[46.1 µM]	x	x	u	-6%
COc1c(OC2OC(C(=O)O)C(O)C(O)C2O)cc(O)c2c(=O)cc(-c3ccccc3)oc12 (stereo not given)	3%	-5.3%	0%	-1%	9%	1%	17%	17%
Clc1ccc(OCCCCSc2ncccn2)cc1	-2%	3.9%	3%	-2%	-22%	-12%	1%	1%
Cc1ccc(C(=O)OCC(=O)NC2CCCC2)cc1C	-1%	x	x	-21%	27%	-4%	u	25%
CCCOc1ccc(CNC(=O)c2ccc(C)c(-n3c(C)nc4cccnc43)c2)cc1	x	-12%	26%	u	x	x	x	-7%
C=C(Cl)COC(=O)C1C2C=CC(C2)C1C(=O)O (stereo not given)	12%	-3.1%	15%	6%	13%	3%	12%[46.1 µM]	-22%
O=C1CCN(C(=O)CSc2ccc(Cl)cc2)N1	9%	x	x	0%	4%	x	u	-2%
COc1cccc(C(C)NC(=O)c2c(F)cccc2Cl)c1 (stereo not given)	2%	-3.1%	-6%	7%	2%	10%	2%	1%
O=C(Nc1ccc(F)cc1)c1cccnc1Oc1ccccc1	9%	x	x	-11%	3%	1%	8%	-16%
COc1ccc(CN2CCNC(=O)C2CC(=O)NCc2csc(C(C)C)n2)c(OC)c1 (stereo not given)	1%	x	x	3%	-16%	0%	-29%[46.1 µM]	1%
C[C@]12c3[nH]c4ccc(Cl)cc4c3CCN1C(=O)[C@@H](CC(=O)NCc1ccco1)C[C@@H]2C(=O)N1CCOCC1	-4%	x	x	x	1%	x	0%	-19%
CCOC(=O)C1[C@H]2C(=O)N(CCCOC)C[C@]23C=C[C@H]1O3 (stereo not given in full)	-1%	3.6%	-6%	u	-6%	-2%	12%	-19%
O=C(CSCC(=O)Nc1ccc2ccccc2c1)NCc1ccccc1	0%	-13%	-1%	-15%	11%	11%	-8%	-9%
CCc1ccc(S(=O)(=O)Nc2nnc(N)s2)cc1	-5%	x	x	x	31%	6%	x	-10%
Cc1nnc2c(NC(C)C)nc3ccccc3n12	1%	2.2%	-3%	0%	1%	0%	3%	-19%
CC(=O)N/N=C\c1cccc(OC/C=C/c2ccccc2)c1	0%	x	x	x	-1%	-14%	x	16%
CCc1cccc(C)c1NC(=O)CSc1nnc(Cc2csc(C)n2)o1	-2%	x	x	1%	6%	x	u	-11%
COc1ccc(OCc2nc3ccc(S(=O)(=O)Nc4ccccc4Cl)cc3[nH]2)cc1	-14%	-5.8%	-22%	-3%	-6%	15%	17%	-13%
CCOC(=O)c1ccc(N2C(=O)c3[nH]nc(-c4ccccc4)c3C2c2ccc(C(C)C)cc2)cc1 (stereo not given)	x	-2.2%	15%	11%[46.1 µM]	x	x	0%[46.1 µM]	u
Fc1ccc(Nc2cccc3nccnc23)cc1	0%	-8.2%	-12%	-4%	-7%	4%	u	16%
Cc1ccc(NS(=O)(=O)c2cc(C(=O)NCc3ccccn3)ccc2Cl)cc1	0%	1.9%	-2%	-1%	-7%	4%	-14%	x
CCN(CC)CCNc1ncnc2c1cnn2-c1cc(Cl)ccc1C	x	0.2%	-5%	13%[46.1 µM]	x	x	x	-27%
CCOc1ccc(/C=N/NC(=O)c2nnn(-c3nonc3N)c2-c2cccs2)cc1	-13%	x	x	x	8%	-8%	x	-12%
SMILES	SARS PLpro yeast	Cruzain Triton	Cruzain inh noDet	Lassa entry inh	RE007 growth inh	NS1 inh	MARV entry inh	StopGo reporter
Cc1ccc2nc(Nc3ccccc3)c(/C=N/O)c(=O)n2c1	-36%	-6.1%	-11%	-20%	-2%	-16%	-26%	-49%
COc1cccc(OC)c1C(=O)NNC(=O)c1cccnc1	-1%	x	x	u	6%	0%	4%	-14%
COc1cc(OC)c(OC)cc1/C=C/c1nc2cc3ccccc3cc2c(=O)n1-c1ccc(F)cc1F	x	0.4%	3%	-20%[46.1 µM]	x	x	x	u
CC1=CC(C)(C)NC(=S)N1c1ccc(Cl)cc1	x	x	x	u	-5%	x	1%[46.1 µM]	-12%
O=[N+]([O-])c1cc(-c2nc(-c3ccncc3)no2)cc([N+](=O)[O-])c1	-31%	-1.3%	-15%	10%	-23%	-20%	0%	-16%
O=C(O)c1ccc(CSc2nnc(-c3ccco3)o2)cc1	4%	-0.1%	-6%	x	1%	-49%	x	-3%
CCN(CC)C(=O)Cn1cc(C(=O)C(=O)NCc2cccs2)c2ccccc21	1%	x	x	19%	1%	x	-21%	4%
c1cn(CC2(Cn3ccnc3)COC2)cn1	1%	-0.6%	-10%	2%	-8%	4%	28%	-8%
CSc1ccc(S(=O)(=O)N(C)Cc2ccccc2)cc1	-1%	x	x	-3%	1%	-9%	u	16%
CCCCCC(=O)Nc1c(-c2ccc(OC)cc2)c(=O)c2ccccc2n1C	3%	2.9%	13%	8%	15%	1%	6%	1%
CN(C)c1ccc(Nc2nc(-c3cccnc3)cs2)cc1	-9%	-5.1%	u	u	-16%	2%	u	-4%
O=S(=O)(c1ccc(F)cc1)N1CN2CCN(C2)C1	3%	x	x	x	-13%	18%	x	-4%
COc1cc(OC)c(-c2c3cc(O)c(=O)cc-3oc3cc(O)c(O)cc23)cc1OC	3.2µM*	-28%	7%	-27%&-1%	u	4%	4.6µM*!	u
COC(OC)c1ccc(C#N)c(SCc2ccccc2)n1	-1%	x	x	x	7%	-36%	x	-9%

Screening data (PubChem BioAssay)
